HSV replic up – HSV replication enhancement | 220,000 compounds, 0.005% hits | maximum fold increase | HSV replication augmentation in cells, fold increase;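 active = peak rise of 1.5-fold or more in the series; tested in PC3 cells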;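 note: first round at 10 µM; read as green reporter fluorescence; hits show the peak of a series up to 25 µM; 1 = signal of infected wells without compound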
PKD1 kinase inh – inhibitors of human PKD1 kinase; Q15139; PKD1 kinase fluorescence polarization assay; inhibition, %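 (about 10 µM by stock and volumes)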; 200,000 compounds, 0.056% hits; AID 797;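 active = inhibition of 50% or more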;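 note: controls were vehicle for no effect and a reference inhibitor for full effect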
Target sequence (Q15139 whole entry, looked up): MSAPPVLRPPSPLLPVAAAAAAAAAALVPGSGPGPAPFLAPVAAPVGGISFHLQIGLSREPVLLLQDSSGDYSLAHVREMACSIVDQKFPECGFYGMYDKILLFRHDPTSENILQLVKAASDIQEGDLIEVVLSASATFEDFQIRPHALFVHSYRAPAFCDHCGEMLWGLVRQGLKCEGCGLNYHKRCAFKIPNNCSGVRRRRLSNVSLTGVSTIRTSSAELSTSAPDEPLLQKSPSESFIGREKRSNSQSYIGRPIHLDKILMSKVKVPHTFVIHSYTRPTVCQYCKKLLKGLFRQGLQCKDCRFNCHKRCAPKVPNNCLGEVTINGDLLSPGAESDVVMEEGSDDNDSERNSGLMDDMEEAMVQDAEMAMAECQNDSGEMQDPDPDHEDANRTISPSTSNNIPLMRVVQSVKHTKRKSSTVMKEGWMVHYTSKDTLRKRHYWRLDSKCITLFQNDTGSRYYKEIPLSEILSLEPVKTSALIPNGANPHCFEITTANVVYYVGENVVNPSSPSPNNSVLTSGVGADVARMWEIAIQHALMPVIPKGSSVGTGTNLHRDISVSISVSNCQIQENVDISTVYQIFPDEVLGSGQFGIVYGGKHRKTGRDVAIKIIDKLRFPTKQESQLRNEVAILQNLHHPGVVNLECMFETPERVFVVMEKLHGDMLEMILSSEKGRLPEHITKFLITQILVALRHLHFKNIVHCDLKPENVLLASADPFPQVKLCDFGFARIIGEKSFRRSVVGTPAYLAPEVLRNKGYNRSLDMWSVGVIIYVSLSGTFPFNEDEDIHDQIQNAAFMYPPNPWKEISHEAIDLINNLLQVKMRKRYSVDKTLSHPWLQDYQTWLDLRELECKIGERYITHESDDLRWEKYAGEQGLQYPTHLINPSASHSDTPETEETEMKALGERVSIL
GALR2 agonist – agonists of human galanin receptor 2 (GALR2); 140,000 compounds, 0.48% hits; O43603; GALR2-expressing cells, agonist activation read-out; activation, %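 (tested at 5 µM)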; AID 803;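 active = above mean plus 3 SD of all compounds, about 5% in these data, not always enough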;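 note: 0% = vehicle buffer wells and 100% = reference agonist at full effect; tested in CHO reporter cells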
Insulin prom inh – TRM-6 insulin promoter activity inhibition; TRM-6 cells (human fetal islet line), insulin promoter-eGFP reporter, imaging; reporter expression induced with tamoxifen; inhibition, % at 2 µM; 130,000 compounds, 0.9% hits; AID 1273;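 active = inhibition above the mean plus 3 SD, with well images judged a real hit on visual review, cut at about 60% in these data, passing the limit was not always enough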
RGS16-Gao HTS – modulates binding between human RGS16 and Galphao | O15492+P09471 | bead-based flow cytometry RGS16-Galphao binding, fluorescence; actives lie on both sides | 220,000 compounds, 0.38% hits | binding response (% of control), % at 10 µM | AID 1441;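 active = below 25% or above 175%, edge rows of some plates excepted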;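 note: Galphao activated by GDP with aluminum fluoride before binding; 100% = wells without compound and 0% = beads without RGS; some results beyond the cut were filed as inactive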
Insulin prom inh cell count – further read-out of Insulin prom inh, marked with its call; normalized cell count, %; measured here: cell count, toxicity; reference of the scale not given here;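 cells exposed to compound for 48 h; stained nuclei by imaging scaled within each plate; lower means fewer cells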
HSV replic up primary fold – recorded beside HSV replic up, whose call it bears; fold increase; compound at 10 µM; measured here: primary screen fold increase 10 uM; tested in PC3 cells;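 GFP signal in the first replicate; 1 = infected wells without compound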
Active calls of the source: *; i = inactive; nt = no result given.

cpd	smiles	Insulin prom inh	GALR2 agonist	PKD1 kinase inh	Insulin prom inh cell count
1	CN1CCN(c2ccccc2NC(=O)c2cc3ccccc3o2)CC1	-88.6	-0.6	4.1	56.9
2	CC(C)=CC(O)C/C(C)=C/COc1ccc2ccc(=O)oc2c1 (stereo unspecified)	nt	nt	nt	nt
3	COc1ccc(/C=N/NC(=O)CCc2n[nH]c(=O)[nH]c2=O)cc1OC	nt	-1.2	3.7	nt
4	COc1cc(OC)c(C(=O)Oc2ccc3c(c2)OCO3)cc1OC	nt	-0.6	1.3	nt
5	COc1ccc2nc(SCC(=O)Nc3cc(OC)c(OC)cc3C(=O)O)c(C)cc2c1	nt	nt	3.2	nt
6	O=C(CCCNC(=O)/C(=C/c1ccccc1F)NC(=O)c1ccccc1)OCc1ccccc1	-10.7	-1.4	-4.2	94.1
7	CCOC(=O)C(Oc1ccc2c(-c3ccccc3)cc(=O)oc2c1)c1ccccc1 (stereo unspecified)	7.4	-0.3	5.2	106.2
8	COc1ccc(CCn2c(=S)[nH]c3cc(C(=O)NCc4ccco4)ccc3c2=O)cc1OC	nt	-1.1	4.3	nt
9	CCN(CC)S(=O)(=O)c1ccc(OC)c(NC(=O)c2cccc(C)c2[N+](=O)[O-])c1	nt	nt	-6.3	nt
10	O=C(COC(=O)c1cnccn1)Nc1ccc2c(c1)OCO2	-19.1	-0.7	-1.3	108.8

cpd	HSV replic up primary fold	HSV replic up	RGS16-Gao HTS
1	0.82	i	128.6
2	0.84	i	100.5
3	1.27	i	98.0
4	0.85	i	91.0
5	0.96	i	103.7
6	1.02	i	109.0
7	1	i	103.2
8	nt	nt	100.0
9	0.86	i	100.0
10	0.97	i	102.8

cpd	smiles	Insulin prom inh	GALR2 agonist	PKD1 kinase inh	Insulin prom inh cell count
11	CCCc1nnc(NC(=O)C(=O)NCCN(CC)CC)s1	nt	nt	nt	nt
12	O=C(Nc1cccnc1)C1CCCN1S(=O)(=O)c1ccc(Cl)c(Cl)c1 (stereo unspecified)	-481.2	-2.0	-10.4	66.7
13	COc1cc(Cn2c(-c3ccc(O)c(OC)c3)nc3ccccc32)ccc1O	nt	nt	nt	nt
14	CCc1nnc(NC(=O)CSc2ncc(-c3ccccc3)[nH]2)s1	46.7	-0.7	1.7	135.3
15	COc1ccc(C(CC(=O)NCCN2CCOCC2)NS(=O)(=O)c2ccc(C)cc2)cc1 (stereo unspecified)	-12.5	-1.9	-6.1	101.5
16	O=C(c1cccs1)N1CCC(c2nc3ccccc3s2)CC1	nt	-2.5	-5.4	nt
17	CCn1c(=O)cc(SCC(=O)NCC2CCCO2)c2ccccc21 (stereo unspecified)	11.4	-2.0	-6.3	125.0
18	Clc1cccc(CNCCNCc2cccc(Cl)c2)c1	-7.7	nt	2.4	110.3
19	CCOC(=O)c1nnn(-c2nonc2-n2cccc2)c1CN1CCCCC1	nt	0.9	-10.9	nt
20	CC1(C)CC(=O)C(=CN2CCN(C(=O)c3ccco3)CC2)C(=O)C1	-27.3	-2.2	5.5	105.3

cpd	HSV replic up primary fold	HSV replic up	RGS16-Gao HTS
11	1.05	i	98.3
12	0.84	i	107.5
13	1.11	i	99.3
14	0.84	i	843.7
15	0.87	i	105.6
16	0.97	i	78.9
17	0.85	i	104.5
18	0.85	i	99.8
19	1.05	i	103.2
20	0.72	i	99.9

A section from the list above, as a working copy:
cpd	smiles	Insulin prom inh	GALR2 agonist	PKD1 kinase inh	Insulin prom inh cell count
11	CCCc1nnc(NC(=O)C(=O)NCCN(CC)CC)s1	nt	nt	nt	nt
12	O=C(Nc1cccnc1)C1CCCN1S(=O)(=O)c1ccc(Cl)c(Cl)c1 (stereo unspecified)	-481.2	-2.0	-10.4	66.7

cpd	HSV replic up primary fold	HSV replic up	RGS16-Gao HTS
11	1.05	i	98.3
12	0.84	i	107.5

Further structures follow:
cpd	smiles	Insulin prom inh	GALR2 agonist	PKD1 kinase inh	Insulin prom inh cell count
21	O=C(O)CCC(=O)N1CCOc2ccc(Cl)cc21	-14.3	0.1	-3.7	142.0
22	Cc1[nH]c2ccccc2c1C(=O)CSc1cccc[n+]1[O-]	nt	nt	nt	nt
23	Cc1cc(C)n(CC(O)CN2C(=O)NC(C)(C)C2=O)n1 (stereo unspecified)	31.4	0.6	2.4	81.0
24	Cc1ccc(NC(=O)c2cc(-c3ccc(C)o3)nc3ccccc23)nc1	48.6	-1.2	11.6	50.8
25	COc1ccc(-c2coc3c(CN4CCOCC4)c(O)ccc3c2=O)cc1	nt	nt	nt	nt
26	O=C(CCCc1nc(-c2ccccc2)no1)NCc1cccnc1	-12.9	-1.6	11.2	67.0
27	O=[N+]([O-])c1ccc(NNC(=S)Nc2ccccc2)cc1	34.5	-2.6	0.3	103.8
28	O=C(O)CCc1ccc(-c2ccc(Cl)cc2)n1CCC(=O)O	2.9	-1.5	0.2	245.6
29	Cc1cc(Cl)cc(C)c1OCC(=O)O	nt	nt	nt	nt
30	COC(=O)Cc1c(O)ccn(Cc2ccccc2OC)c1=O	36.4	-0.7	-8.2	122.7

cpd	HSV replic up primary fold	HSV replic up	RGS16-Gao HTS
21	1.02	i	109.9
22	1.01	i	101.0
23	0.85	i	100.6
24	0.8	i	96.7
25	0.84	i	102.2
26	0.95	i	107.5
27	nt	nt	73.4
28	0.79	i	94.8
29	0.947	i	102.0
30	0.92	i	99.2

Exported with each value named: part of the list above
21) O=C(O)CCC(=O)N1CCOc2ccc(Cl)cc21
- Insulin prom inh: -14.3
- GALR2 agonist: 0.1
- PKD1 kinase inh: -3.7
- Insulin prom inh cell count: 142.0
- HSV replic up primary fold: 1.02
- HSV replic up: i
- RGS16-Gao HTS: 109.9
25) COc1ccc(-c2coc3c(CN4CCOCC4)c(O)ccc3c2=O)cc1
- Insulin prom inh: nt
- GALR2 agonist: nt
- PKD1 kinase inh: nt
- Insulin prom inh cell count: nt
- HSV replic up primary fold: 0.84
- HSV replic up: i
- RGS16-Gao HTS: 102.2

Structures shown so far that have a nitro group on carbon, in the order listed:
cpd	smiles	Insulin prom inh	GALR2 agonist	PKD1 kinase inh	Insulin prom inh cell count
9	CCN(CC)S(=O)(=O)c1ccc(OC)c(NC(=O)c2cccc(C)c2[N+](=O)[O-])c1	nt	nt	-6.3	nt
27	O=[N+]([O-])c1ccc(NNC(=S)Nc2ccccc2)cc1	34.5	-2.6	0.3	103.8

cpd	HSV replic up primary fold	HSV replic up	RGS16-Gao HTS
9	0.86	i	100.0
27	nt	nt	73.4

(list continues)
cpd	smiles	Insulin prom inh	GALR2 agonist	PKD1 kinase inh	Insulin prom inh cell count
31	O=C(Nn1c(-c2ccc(Br)cc2)nc2ccccc2c1=O)c1cccnc1	77.8*	nt	0.7	85.0*
32	Cc1ccc(CNC(=O)/C=C/c2ccc(S(=O)(=O)NCc3ccco3)cc2)cc1	0.0	0.5	-8.1	120.3
33	Cc1ccc(S(=O)(=O)NC(C(=O)N2CCOCCOCCOCCOCC2)c2ccccc2)cc1 (stereo unspecified)	nt	nt	-4.3	nt
34	Cn1c(=O)c2cc(S(=O)(=O)NCCC(=O)N3CC=C(c4ccccc4)CC3)ccc2n(C)c1=O	27.3	-1.8	-5.9	140.5
35	CCN(CC)Cc1oc(CO)cc(=O)c1O	-28.6	nt	-5.8	93.8
36	Clc1ccc(CN2C3=NCCN3c3ccccc32)cc1Cl	nt	-0.7	-5.8	nt
37	CCCCCn1c(N2CCN(Cc3ccccc3)CC2)nc2c1c(=O)[nH]c(=O)n2C	-5.4	1.5	-14.9	210.8
38	CC1=C(C(=O)OC(C)C)C(c2ccco2)NC(=O)N1 (stereo unspecified)	-25.7	-1.2	-6.7	36.8
39	O=C1CCc2cc(S(=O)(=O)NCCC(=O)NC3CCN(Cc4ccccc4)CC3)ccc2N1	nt	-3.4	5.0	nt
40	COc1ccc(C(=O)/C=C/C(=O)N(Cc2ccccc2)C(C(=O)NC2CCCCC2)c2ccncc2)c(O)c1 (stereo unspecified)	-11.1	-0.3	-7.2	113.5

cpd	HSV replic up primary fold	HSV replic up	RGS16-Gao HTS
31	0.92	i	60.2
32	0.93	i	104.2
33	1.03	i	104.3
34	0.98	i	97.3
35	1.07	i	102.4
36	0.77	i	67.4
37	0.82	i	113.4
38	1.13	i	91.0
39	0.99	i	105.8
40	0.88	i	86.6

Assay outcomes from PubChem.
